# Anaer choline gr: growth inhibitors of anaerobic choline-fed gram-negatives, minimal medium, absorbance. Gram-negative bacterium anaerobic choline minimal medium; stronger effect = lower value; many inactives read as strong as hits in the columns shown. calls only. 55,000 tested, 0.2% active;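 active = growth z-score on choline under -2 at 7 or 20 h with little or no fall on glycerol, limits in tiers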;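 note: stock transfer was 300 nL into about 50 µL; the organism is E. coli; final concentration not given here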
# Anaer choline gr early: recorded beside Anaer choline gr, whose call it bears; z-score; measured here: choline growth z-score, timepoint 1;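 score of optical density at 7 h as mean of two plates; lower means less growth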
# The depositor's hits bear a star; i = inactive; & = joins results of further samples.
SMILES,Anaer choline gr,Anaer choline gr early
COC(=O)c1ccc(C2CC(=O)NC3=C2C(=O)CCC3)cc1 (configuration not stated),i,-0.5
Nc1nc(Nc2ccccc2)nc2c1ncn2[C@@H]1O[C@H](CO)[C@@H](O)[C@H]1O,i,0.66
CC1CS(=O)(=O)N(c2ccc(S(=O)(=O)N3CCCC3)cc2)C1=O (configuration not stated),i,-1.94
Cc1noc(/C=C/c2ccc(S(=O)(=O)N3CCN(C)CC3)s2)c1NC(=O)C1CC1,i,-0.61
COc1ccc(NC(=O)c2ccc(-n3nc(Sc4ccc(F)cc4)ccc3=O)cc2)cc1,i,0.53
COCCCNC(=O)CN1C(=O)C2CCCC2=Nc2ccccc21 (configuration not stated),i,-0.55
CC(CCc1ccco1)NC(=O)C1CCc2nc(N3CCCC3)ncc2C1 (configuration not stated),i,0.23
COCCNC(=O)C1CCCN(c2ncnc3c2oc2ccccc23)C1 (configuration not stated),i,-1.21
O=C(NCCc1cccs1)C1CCc2nc(N3CCCC3)ncc2C1 (configuration not stated),i,0.4
O=C(CN1C(=O)c2cccnc2Oc2ccccc21)Nc1ccc(Cl)cc1C(=O)c1ccccc1,i,-0.39
Cn1c(-c2nnc(SCC(=O)NCC3CCCO3)o2)cc2ccccc21 (configuration not stated),i,-0.99
O=S(=O)(Nc1ccc(-c2ccc(N3CCOCC3)nn2)cc1)c1ccccc1F,i,-0.06
Cc1occc1-c1nnc(SC(C)C(=O)NCCC2=CCCCC2)o1 (configuration not stated),i,0.69
O=C(CCn1cnc2onc(-c3cccc(F)c3)c2c1=O)NCCc1ccc(Cl)cc1,i,0.56
O=C(Cn1cc(S(=O)(=O)Cc2ccc(F)cc2)c2ccccc21)NCC1CCCO1 (configuration not stated),i,-1.17
COC(=O)c1ccc(NC(=O)c2c(-c3ccccc3)c(-c3ccccc3)n[nH]c2=O)cc1,i,1.98
Cn1nc(C(=O)NCCCN2CCCC2=O)c2c1-c1cc(F)ccc1SC2,i,-0.74
c1ccc2c(c1)CC(N1CCN(c3cccc4c3OCCO4)CC1)C2,i,-0.37
COc1ccc(CNC(=O)C2=C(c3ccccc3)c3cc(Cl)ccc3S(=O)(=O)N2C)cc1OC,i,-0.23
Cc1cccc(C(=O)Nc2ccc(N3CCCC3)c(NC(=O)Nc3ccccc3Cl)c2)c1,i,0.4
Cc1ccc2oc(=O)c3cc(C(=O)N4CC=C(c5ccccc5)CC4)sc3c2c1,i,1.47
CN(C)CCNC(=O)c1nc(-c2ccc(S(=O)(=O)N3CCCC3)cc2)no1,i,-0.28
Cc1cc(Nc2ccc(Oc3ccccc3)cc2)nc(-n2nc(C)cc2C)n1,i,-0.37
O=C(NCCn1nnc2cc(S(=O)(=O)N3CCCC3)ccc21)NC1CCCC1,i,-0.22
CCCn1c(CN2CCN(C)CC2)nc2cc(NC(=O)C3CCCCC3)ccc21,i,0.91
O=C(NCCN1CCCC1)c1ccc2ccnc(N3CCN(c4ccc(Cl)cc4)CC3)c2c1,i,-1
CC(C)Nc1ccc(-c2nc(-c3ccc(Cl)cc3)no2)nn1,i,1.96
CC12CCC3c4ccc(O)cc4CCC3C1C[C@H](O)[C@@H]2O (some centres not stated),i,0
CCOC(=O)CCc1c(C)nc2nc(CO)[nH]n2c1=O,i,-0.37
COc1ccc(-n2nc(C(=O)Nc3ccc(Br)cc3C)c(=O)n(C)c2=O)cc1,i,-0.03
C=CCn1c(SCc2ccc(C)cc2)nc2c(-c3ccccc3)cn(C)c2c1=O,i,0.83
Cc1ccc(C2C3=C(CC(C)(C)CC3=O)Nc3ccccc3N2CC(=O)NCC(C)C)cc1 (configuration not stated),i,-0.09
CCCCC(=O)Nc1ccc2c(c1)nc(CN1CCOCC1)n2C(C)C,i,-0.67
Cc1nn(-c2ccc3nnc(C)n3n2)c(C)c1CCC(=O)NCCc1c[nH]c2ccccc12,i,1.23
COc1ccccc1CNC(=O)c1cc(-c2ccc(F)cc2)nc2n[nH]c(-c3ccccc3)c12,i,-0.38
Cc1ccc(C)c(N2CCN(CC(O)c3ccc4c(c3)OCO4)CC2)c1 (configuration not stated),i,-0.89
CN(CCCNC(=O)c1c2c(nc3ccccc13)C(=O)N(C1CCCCC1)C2)c1ccccc1,i,-1.59
CN(Cc1ccccc1)C(=O)c1cc2c(=O)oc3ccccc3c2n1C,i,-0.34
Fc1cccc(-c2noc(CSc3nccn3-c3ccccc3)n2)c1,i,-0.33
COc1ccc(Nc2ncnc3c2nc2n3CCCC2)cc1OC,i,0.04
c1ccc(OCCCn2c(C3CCCO3)nc3ccccc32)cc1 (configuration not stated),i,-0.24
O=C(C1CCNCC1)N1CCCCC1,i,-1.9
CCc1cccc(-n2nnnc2N2CCN(C(=O)Nc3ccc(C)cc3Cl)CC2)c1,i,0.89
CCOc1ccc(C(=O)Nc2ccc(S(=O)(=O)Nc3nccs3)cc2)cc1OC,i,1.28
CCC1Sc2ccccc2N(CC(=O)NCc2ccc(C)cc2)C1=O (configuration not stated),i,0.9
CNC(=O)N1CCCC(c2cccc(C(=O)NC(C)c3ccc(C)cc3C)c2)C1 (configuration not stated),i,1.35
COc1ccc(NS(=O)(=O)c2ccc3c(c2)NC(=O)CC(=O)N3)cc1OC,i,-1.15
CCC(=O)N1CCc2cc(CNS(=O)(=O)c3cccc4nsnc34)ccc21,i,-1.04
Cc1ccc(CNC(=O)c2ccc(NC(=O)N3CC(C)Sc4ccccc43)cc2)cc1 (configuration not stated),i,-0.75
O=C(NCc1ccc(Br)cc1)C1CCN(c2cc(-c3ccc(F)cc3)ncn2)CC1,i,0.49
COc1ccc(S(=O)(=O)N2CSC[C@@H]2C(=O)NCCc2csc(C)n2)cc1,i,-1.53
COc1ccc(C2Nc3c(C)cc(C)cc3[C@H]3OCCC[C@@H]23)cc1Cl (some centres not stated),i,0.21
CCN1c2cc(C)ccc2-n2cccc2C12CCN(C(=O)c1ccccc1OC)CC2,i,1.07
O=C(Nc1ccc(F)c(Cl)c1)N1CCCN(c2nc3cc(F)ccc3n3cccc23)CC1,i,0.49
CCOCCCN1C(=O)c2nc3ccccc3n2CC1(C)C(=O)NC1CCCC1 (configuration not stated),i,1.48
Cc1ccccc1-c1nnc(SCC(=O)N2CCC(C)CC2)o1,i,0.55
CCc1nc(-c2cc(S(=O)(=O)N3CCC(C(=O)Nc4ccc(OC)cc4)CC3)c(C)s2)no1,i,0.43
COc1ccc(Cl)cc1NC(=O)Nc1nnc(SCc2cc(=O)n3oc(C)cc3n2)s1,i,0.28
COc1ccc(C(=O)Nc2ccc(SCc3nnc(-c4ccccc4)o3)cc2)cc1Br,i,0.72
Cc1cc(Nc2ccc(C(=O)N3CCN(c4ccccn4)CC3)cc2)n2ncnc2n1,i,0.5

# Retrieved one by one from the list above (two):
SMILES,Anaer choline gr,Anaer choline gr early
Cc1ccccc1-c1nnc(SCC(=O)N2CCC(C)CC2)o1,i,0.55
COc1ccc(S(=O)(=O)N2CSC[C@@H]2C(=O)NCCc2csc(C)n2)cc1,i,-1.53

# (cont.)
SMILES,Anaer choline gr,Anaer choline gr early
O=C(CN1c2ccc(Br)cc2-c2ccccc2S1(=O)=O)Nc1ccc(F)cc1F,i,-0.28
CCOc1ccc(S(=O)(=O)Nc2c(C)n(C)n(-c3ccccc3)c2=O)cc1-c1nc(C(C)C)no1,i,0.15
CN1CCN(c2cc(C(=O)O)c3cc(NS(=O)(=O)c4ccc(Br)cc4)ccc3n2)CC1,i,-0.81
COc1ccc(NC(=O)CCc2c(C)nn(-c3cc(N4CCCC4)ncn3)c2C)cc1,i,4.07
Cc1nnc(-c2csc(S(=O)(=O)N3CCOCC3)c2)o1,i,0.15
CCCCC(=O)N1CCCN(C(=O)Nc2ccc(S(=O)(=O)N3CCOCC3)s2)CC1,i,-0.02
Cc1cc(Cl)ccc1N1C(=O)c2cc3ccsc3n2CC1(C)C(=O)NC1CCCCC1 (configuration not stated),i,0.46
CC(C)(C)C(=O)NC1CC(=O)N(c2ccc3c(c2)OCCO3)C1 (configuration not stated),i,-0.6
COc1cccc(CCNC(=O)c2ccc3c(c2)nc(C)c(=O)n3Cc2ccccc2)c1,i,1.17
O=C(CCc1nc(CSc2nc3ccccc3s2)no1)Nc1ccc(Cl)cc1F,i,-0.45
CCN1CC(=O)Nc2cc(C(=O)O)ccc21,i,-0.4
O=C(CS(=O)Cc1cnn(-c2ccccc2)c1-n1cccc1)N1CCN(c2ccccn2)CC1 (configuration not stated),i,-0.27
COc1ccccc1N1CCN(c2ccc(=O)n(CC(=O)Nc3cccnc3)n2)CC1,i,-0.98
Cc1nn(-c2ccccc2)c2c1-c1sc(C(=O)NCCCN3CCCCC3C)cc1CC2 (configuration not stated),i,0.15
CCOc1ccc(NC(=O)N2CCN(CC(=O)c3c[nH]c4ccc(OC)cc34)CC2)cc1,i,-1.68
O=C(c1cc2cccnc2n(Cc2ccccc2)c1=O)N1CCCC1,i,-2.19
Cc1cc(C2CCCN2C(=O)Nc2ccc3c(c2)OCCO3)on1 (configuration not stated),i,-0.44
CC(C)n1nc2c(S(=O)(=O)N3CCCCC3)cccn2c1=O,i,0.11
Cc1ccc(C(=O)Cn2nc3n(C(C)C)c(=O)c4ccc(C(=O)NC5CCCC5)cc4n3c2=O)c(C)c1,i,0.11
CC1CCN(C(=O)Cn2c(=O)c3ccccc3n3c(=S)sc(-c4ccc(F)cc4)c23)CC1,i,-0.77
COc1cc(COc2cc(N)c(Cl)cc2C(=O)CCC2CCN(CCNS(C)(=O)=O)CC2)cc(OC)c1,i,0.44
O=C(NCCCn1c(C(F)(F)F)nc2cccnc21)Nc1ccc(Br)cc1,i,-0.02
CC1CCN(S(=O)(=O)c2cc(-c3nnc(C(C)C)o3)co2)CC1,i,-1.61
CCCCOc1ccc(-c2cc3c4n[nH]c(=S)n4ccn3n2)cc1,i,1.64
CC(C)CCNC(=O)C1CCC(Cn2c(=O)c3sccc3n(CC(=O)NC(C)C)c2=O)CC1 (configuration not stated),i,0.05
CN=C(NC#N)NCCSCc1csc(N=C(N)N)n1,i,-0.25&0.11
CCOC(=O)c1sc(NC(=O)CSc2nc(C)nc3c2CCC3)nc1C,i,-1.13
CCCC(=O)N(Cc1nc2nc(C)cc(=O)n2[nH]1)c1ccccc1,i,-0.38
Cc1ccc(-c2csc(Cc3nc(-c4ccc(F)cc4)no3)n2)cc1C,i,0.92
Cc1ccc(NC(=O)c2ccc(=O)n(CC(=O)Nc3ccc4c(c3)OCCO4)n2)cc1,i,0.27
CCCn1cnc2nc(CSc3ccccc3NC(=O)C(C)Oc3ccccc3)cc(=O)n21 (configuration not stated),i,0.48
CCCCc1nnc2sc(-c3ccc(C)nc3)nn12,i,-1.06
Cc1cc(C)c(C)c(S(=O)(=O)N2CCCC2c2nc(-c3ccccc3)no2)c1C (configuration not stated),i,-0.52
CC(N)CCCC(C)(C)O (configuration not stated),i,0.05
Cc1nc(-c2cc(S(=O)(=O)Nc3ccccc3)c(C)s2)sc1C,i,-0.59
Cc1[nH]c2ccc(-c3nnc(SCC(=O)NCCc4nc5ccccc5[nH]4)o3)cc2c1C,i,-0.34
CNC(=O)N1CCN(c2nc3cc(Br)ccc3n3cccc23)CC1,i,0.34
O=C(Nc1ccc(Cn2cnc(-c3nc(-c4ccc(F)cc4)no3)c2)cc1)c1ccc(Br)cc1,i,-0.99
CCN1CCN(C(c2ccc(Br)cc2)c2nnc(-c3ccccc3)o2)CC1 (configuration not stated),i,0.17
Cc1sc2ncnc(Nc3ccc(F)cc3)c2c1S(=O)(=O)N1CCCCC1,i,-0.24

# 15 entries already listed, arranged by length of the SMILES, smallest number first:
SMILES,Anaer choline gr,Anaer choline gr early
COc1ccc(Nc2ncnc3c2nc2n3CCCC2)cc1OC,i,0.04
CCOC(=O)CCc1c(C)nc2nc(CO)[nH]n2c1=O,i,-0.37
Cc1ccccc1-c1nnc(SCC(=O)N2CCC(C)CC2)o1,i,0.55
CC(C)Nc1ccc(-c2nc(-c3ccc(Cl)cc3)no2)nn1,i,1.96
CCCCOc1ccc(-c2cc3c4n[nH]c(=S)n4ccn3n2)cc1,i,1.64
Cn1c(-c2nnc(SCC(=O)NCC3CCCO3)o2)cc2ccccc21 (configuration not stated),i,-0.99
Cc1ccc(C)c(N2CCN(CC(O)c3ccc4c(c3)OCO4)CC2)c1 (configuration not stated),i,-0.89
Cc1sc2ncnc(Nc3ccc(F)cc3)c2c1S(=O)(=O)N1CCCCC1,i,-0.24
CCCn1c(CN2CCN(C)CC2)nc2cc(NC(=O)C3CCCCC3)ccc21,i,0.91
COc1ccc(C2Nc3c(C)cc(C)cc3[C@H]3OCCC[C@@H]23)cc1Cl (some centres not stated),i,0.21
Cc1cc(Nc2ccc(C(=O)N3CCN(c4ccccn4)CC3)cc2)n2ncnc2n1,i,0.5
Cc1nn(-c2ccccc2)c2c1-c1sc(C(=O)NCCCN3CCCCC3C)cc1CC2 (configuration not stated),i,0.15
Cc1cc(Cl)ccc1N1C(=O)c2cc3ccsc3n2CC1(C)C(=O)NC1CCCCC1 (configuration not stated),i,0.46
Cc1ccc(C2C3=C(CC(C)(C)CC3=O)Nc3ccccc3N2CC(=O)NCC(C)C)cc1 (configuration not stated),i,-0.09
COc1ccccc1CNC(=O)c1cc(-c2ccc(F)cc2)nc2n[nH]c(-c3ccccc3)c12,i,-0.38

# The list goes on.
SMILES,Anaer choline gr,Anaer choline gr early
CCOC(=O)c1nnc2c(-c3ccc(OC)cc3)c(C)nn2c1C,i,-0.32
Cc1ccc(-c2cc(C(F)(F)F)nn2-c2ccc(S(N)(=O)=O)cc2)cc1,i,0.55&0.8&-0.18
COc1ccc(Cl)cc1NC(=O)C1CCN(C(=O)c2cccn2-c2cccnc2)CC1,i,-0.28
Cc1c2c(nn1-c1ccc(SCC(=O)NC3CCCC3)nn1)CCC2,i,0.98
CCSc1nnc(-c2nn(C)c3c2CN(S(=O)(=O)c2c(C)nn(C)c2C)CC3)n1C,i,-2.02
CC(=O)N1CCCC1c1nc2ccccc2[nH]1 (configuration not stated),i,0.81
CC/C=C\C/C=C\C/C=C\CCCCCCCC(=O)N[C@@H](Cc1ccc(O)cc1)C(=O)O,i,-0.36
COc1cccc(-c2nc(S(=O)(=O)c3ccc(C)cc3)c(N3CCC(C)CC3)o2)c1,i,1.22
Cn1c(CN(c2ccc(F)cc2)S(C)(=O)=O)nnc1SCc1nnc(-c2ccccc2)o1,i,-0.16

# Source: PubChem (ICCB-Longwood Screening Facility, Harvard Medical School)

# A portion of the library; the hit share may differ from the screen's.
